# Bioassay records: PubChem, several laboratories
# MT1-MMP act inh = MT1-MMP (human) activation inhibition; P50281; HT1080 RFP-PRO-GFP cells, GFP/RFP ratio fluorescence, overnight; percent of plate control window, DMSO zero; GFP/RFP ratio change, % at 20 µM; 360,000 tested, 0.061% active;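 active = GFP/RFP ratio change of at least 30% with cell ATP level not reduced by more than half and red fluorescence within 50% of control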; note: strong numbers were not always called active
#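 Assay system: HT1080 RFP-PRO-GFP cells. Benchmarks: DMSO vehicle wells and RFP-L50D-GFP reporter cell wells. Times: overnight cell settling, then overnight compound exposure, 37 °C, 5% CO2. Compound: 20 µM single dose, 1% DMSO. Read-out basis: GFP/RFP fluorescence ratio.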
# CSC inhib = cancer stem cell inhibition. cancer stem cell-like cells viability, luminescence. inhibition, % at 7.5 µM. 300,000 tested, 1.1% active;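 active = mean at 75% or more and at least half the replicates too; inconclusive = mean and replicates disagree; tested in HMLE shEcad cells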;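 note: 0% = median of negative and 100% = median of positive control wells; the first replicate is given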
# Rce1 inh = yeast Ras-converting enzyme inhibition | AID 2563 | 290,000 tested, 0.27% active | calls only | yeast membranes, quenched prenylated peptide cleavage fluorescence;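 active = fall in fluorescence gain of 50% or more versus controls, with final raw signal at or below 3038400; inconclusive = same 50% fall but final raw signal above 3038400; inactive = fall in fluorescence gain under 50%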;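 note: plate controls were neutral control wells for no effect and wells lacking membranes for full effect; tested at 10 µM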
# Yeast UUG start = alters start codon recognition fidelity in yeast. activity score, % at 18.7 µM. AID 602363. S. cerevisiae UUG-firefly luciferase reporter, luminescence/redox ratio. 350,000 tested, 0.13% active;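 active = replicate mean at a twofold rise or more, about +100% in these data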;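 note: firefly luciferase made from a UUG start codon reports start codon fidelity; reporter light over untreated wells divided by growth signal over untreated wells; some hits fall short of that in this replicate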
# PABP polyA inh = blocks human PABP binding to poly(A) RNA; P11940; fluorescence polarization; inhibition, % at 35 µM; 290,000 tested, 1% active; AID 2014;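 active = 50% or more with normal probe brightness, or confirmed in later tests; inconclusive = above 50% with abnormal brightness, or retests that disagree; inactive = below 50% or failed in later tests; about a fifth of its hits are not listed in these tables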;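 note: calls also rest on retests at 20 µM and on dose response follow-up; controls were probe without protein and protein plus probe with vehicle; some compounds called inactive have numbers as strong as hits; many hits fall short of the cut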
# Target sequence (P11940 whole entry, looked up): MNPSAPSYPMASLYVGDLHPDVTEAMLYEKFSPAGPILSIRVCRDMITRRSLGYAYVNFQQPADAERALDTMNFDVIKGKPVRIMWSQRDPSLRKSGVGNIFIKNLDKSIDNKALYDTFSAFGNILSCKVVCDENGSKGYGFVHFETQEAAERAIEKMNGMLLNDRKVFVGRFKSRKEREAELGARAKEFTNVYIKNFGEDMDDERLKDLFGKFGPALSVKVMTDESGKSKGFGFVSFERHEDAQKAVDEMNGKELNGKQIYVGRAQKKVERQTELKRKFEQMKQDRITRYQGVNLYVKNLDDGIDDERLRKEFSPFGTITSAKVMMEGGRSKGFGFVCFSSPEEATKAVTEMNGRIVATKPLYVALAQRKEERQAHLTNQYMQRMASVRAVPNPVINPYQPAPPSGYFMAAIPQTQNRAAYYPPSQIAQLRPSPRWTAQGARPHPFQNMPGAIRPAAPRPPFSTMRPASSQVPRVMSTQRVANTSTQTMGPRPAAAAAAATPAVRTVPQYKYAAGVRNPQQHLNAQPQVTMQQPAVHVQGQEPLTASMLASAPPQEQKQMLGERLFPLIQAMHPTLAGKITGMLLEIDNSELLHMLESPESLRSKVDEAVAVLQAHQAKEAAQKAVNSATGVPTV
# eIF4H inh = inhibitors of RNA binding by human eIF4H; 290,000 tested, 0.94% active; Q15056; eIF4H fluorescence polarization binding assay; inhibition, % at 35 µM;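 active = 50% or more with normal probe brightness, or confirmed in later tests; inconclusive = above 50% with abnormal brightness, or retests that disagree; inactive = below 50% or failed in later tests; about a fifth of its hits are not listed in these tables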;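 note: calls also rest on retests at 20 µM and on dose response follow-up; 0% = protein and probe with vehicle and 100% = probe without protein; strong numbers were not always called active; many hits fall short of the cut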
# Env fusion inh = inhibitors of HIV Env-mediated cell fusion. HeLa-JRFL Env/CEM21 cell fusion, luciferase. inhibition, % at 12.3 µM. 360,000 tested, 1.1% active;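 active = mean replicate inhibition score of at least 50 and every replicate individually at or above 50; inconclusive = only one of the two criteria met; inactive = mean below 50 and not all replicates reaching 50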;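 note: 0% = plate neutral controls and 100% = maraviroc near 300 nM; one replicate is shown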
# MT1-MMP act inh RFP = also measured in MT1-MMP act inh; calls as there; RFP signal change, %; measured here: RFP expression control read;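 0 = vehicle wells; hits needed this value within 50% of zero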
# * hit, by the source's call; i = inactive; ? = inconclusive; / = not tested or not shown.
# The opening two records as a preview:
# Each structure is followed by: CSC inhib	Yeast UUG start	Env fusion inh	Rce1 inh	MT1-MMP act inh RFP	eIF4H inh	MT1-MMP act inh	PABP polyA inh
- Cc1ccc(C(=O)NC(=S)Nc2ccc3c(c2)OCCO3)c(C)c1
  /	-15	/	i	-2	-9	2	-3
- COC(=O)c1ccc(Cn2nc(-c3ccc(C)cc3)ccc2=O)cc1
  -6	5	6	i	2	0	5	-3

# The list itself, from the start:
# Each structure is followed by: CSC inhib	Yeast UUG start	Env fusion inh	Rce1 inh	MT1-MMP act inh RFP	eIF4H inh	MT1-MMP act inh	PABP polyA inh
- Cc1ccc(C(=O)NC(=S)Nc2ccc3c(c2)OCCO3)c(C)c1
  /	-15	/	i	-2	-9	2	-3
- COC(=O)c1ccc(Cn2nc(-c3ccc(C)cc3)ccc2=O)cc1
  -6	5	6	i	2	0	5	-3
- CCOc1ccccc1NC(=O)Cn1nnc(C(=O)NCc2ccc3c(c2)OCO3)c1N
  -1	-24	22	i	-20	0	-11	2
- COc1ccc(NC(=O)CCN(c2ccc(OC)cc2)S(=O)(=O)c2ccc(C)c(C)c2)cc1
  /	-3	7	/	-3	/	-1	/
- CCOc1cc(/C=N/NC(N)=O)cc(Br)c1OCc1ccccc1
  13	67	-223	i	-4	/	6	/
- CCc1c(C)sc2nc3c(C(=O)N4CCOCC4)cc(C(=O)c4cc(F)ccc4O)cn3c(=O)c12
  /	-6	10	i	-12	-4	-18	2
- Cc1cccc(N(C(=O)c2snc(C(N)=O)c2N)C(C(=O)NC2CCCC2)c2ccncc2)c1 (stereo not given)
  -5	-11	-15	i	2	-8	-1	5
- COc1cc([N+](=O)[O-])ccc1NC(=O)NCc1cccnc1
  -5	-10	6	i	0	-3	-2	7
- CN(Cc1ccco1)C(=O)c1ccc(S(=O)(=O)N2CCCCCC2)cc1
  /	-10	3	/	-1	/	0	/
- COc1ccc(C)cc1-n1nnnc1SCC(=O)c1ccc2c(c1)OCCO2
  4	-11	-37	i	3	-9	-2	-2
- Cc1ccc(C(=O)C2CCN(CC(=O)N3CCN(c4ccc(F)cc4)CC3)CC2)cc1
  18	/	1	i	-3	1	3	-5
- CC1CC1C(=O)Nc1cc(C(F)(F)F)ccc1N1CCOCC1 (stereo not given)
  22	-14	6	i	1	-1	-5	14
- CCOc1ccccc1NC(=O)Nc1ccc2c(c1)OCO2
  8	-11	-5	i	-2	0	-1	-8
- CCc1noc(C)c1C(=O)Nc1cc(S(=O)(=O)N2CCOCC2)ccc1N1CCN(CC)CC1
  /	/	-9	i	0	/	-1	/
- CN(C)Cc1ccccc1Sc1cccc2ccccc12
  3	/	/	i	1	-7	-2	25

# 4 entries drawn at random from those above:
# Each structure is followed by: CSC inhib	Yeast UUG start	Env fusion inh	Rce1 inh	MT1-MMP act inh RFP	eIF4H inh	MT1-MMP act inh	PABP polyA inh
- COC(=O)c1ccc(Cn2nc(-c3ccc(C)cc3)ccc2=O)cc1
  -6	5	6	i	2	0	5	-3
- COc1cc([N+](=O)[O-])ccc1NC(=O)NCc1cccnc1
  -5	-10	6	i	0	-3	-2	7
- CCOc1cc(/C=N/NC(N)=O)cc(Br)c1OCc1ccccc1
  13	67	-223	i	-4	/	6	/
- CN(Cc1ccco1)C(=O)c1ccc(S(=O)(=O)N2CCCCCC2)cc1
  /	-10	3	/	-1	/	0	/

# Carrying on.
# Each structure is followed by: CSC inhib	Yeast UUG start	Env fusion inh	Rce1 inh	MT1-MMP act inh RFP	eIF4H inh	MT1-MMP act inh	PABP polyA inh
- COc1ccccc1NC(=O)c1ccc(NS(=O)(=O)c2ccc(F)c(Cl)c2)cc1
  9	/	-16	i	3	-5	5	0
- O=C(NN=C1CCCC1)C(=O)Nc1cccc(C(F)(F)F)c1
  -2	-15	/	i	0	0	-3	9
- O=C1CCCc2oc3ccc(O)cc3c21
  -6	-20	/	i	2	9	5	-6
- O=C(NCC1CCCO1)C(c1cccs1)N(C(=O)Cn1nnc(-c2cccs2)n1)C1CCCC1 (stereo not given)
  -5	2	-71	/	13	45	9	1
- COc1ccc(OCC(O)CN(C)C(=O)C(C)Oc2ccccc2)cc1 (stereo not given)
  -9	-9	0	i	-7	-13	-4	19
- CC(C)CCOc1cccc(OCC(=O)O)c1
  /	/	0	i	0	-3	-2	-2
- CN(C(=O)N1CCN(c2ccccn2)CC1)c1ccccc1
  -9	-14	-49	i	-5	-3	-6	1
- Cc1ccc2oc(C(=O)N(C)Cc3cnccn3)c(C)c2c1
  9	-11	-22	i	-2	6	-1	-2
- COc1ccc(S(=O)(=O)NCCCN2CCCC2=O)c(OC)c1
  -10	-8	22	i	4	-4	-1	-1
- COCCSc1ccccc1C(=O)NCCCn1ccnc1
  -14	/	-44	i	3	4	3	10
- O=C(NCc1cccnc1)NC1CCCN1S(=O)(=O)c1ccc(Cl)cc1 (stereo not given)
  /	-2	/	i	3	5	1	1
- O=C(CNS(=O)(=O)c1cccc(Cl)c1)OCc1csc(-c2ccccc2)n1
  -12	/	-7	i	1	-5	1	-2
- COc1ccccc1/C=N/N1CCN(Cc2ccccc2Cl)CC1
  -1	3	-7	i	0	-6	0	2
- CCOC(=O)CN(C(=O)CSc1nnc(C)n1-c1ccccc1)c1cccc([N+](=O)[O-])c1
  4	-15	/	i	1	6	3	4
- CC(=O)OCC(=O)[C@@]1(O)CC[C@H]2[C@@H]3CCC4=CC(=O)CC[C@]4(C)[C@H]3C(=O)C[C@@]21C
  -14	-19	5	i	5	5	3	4

# A few values from above:
# Under MT1-MMP act inh RFP, CC(C)CCOc1cccc(OCC(=O)O)c1 is listed with 0
# Under CSC inhib, COc1ccccc1/C=N/N1CCN(Cc2ccccc2Cl)CC1 is listed with -1
# Under MT1-MMP act inh, CC(=O)OCC(=O)[C@@]1(O)CC[C@H]2[C@@H]3CCC4=CC(=O)CC[C@]4(C)[C@H]3C(=O)C[C@@]21C is listed with 3
# Under eIF4H inh, COCCSc1ccccc1C(=O)NCCCn1ccnc1 is listed with 4
# Under Env fusion inh, O=C(CNS(=O)(=O)c1cccc(Cl)c1)OCc1csc(-c2ccccc2)n1 is listed with -7

# (cont.)
# Each structure is followed by: CSC inhib	Yeast UUG start	Env fusion inh	Rce1 inh	MT1-MMP act inh RFP	eIF4H inh	MT1-MMP act inh	PABP polyA inh
- Fc1ccccc1N1CCN(C2CCCN(Cc3cccc(C(F)(F)F)c3)C2)CC1 (stereo not given)
  7	-14	17	i	-1	-3	1	3
- Cc1ccc2c(=O)cc(C(=O)NCCc3ccc(S(N)(=O)=O)cc3)oc2c1
  /	-7	/	i	-14	34	-3	11
- O=C(Nc1ccc(N2CCOCC2)nc1)c1ccccc1Cl
  /	-22	-21	i	1	4	4	15
- Cc1cccn2c(=O)c(/C=C(\C#N)S(=O)(=O)c3ccccc3)c(Oc3ccc(Cl)cc3)nc12
  4	/	3	i	-21	48	-11	28
- CC(C)OCCCNc1ncnc2c1cnn2-c1ccccc1
  -4	-36	/	i	-2	4	-1	1
- Cc1ccc(Nc2nc(C(=O)N3CCC(C(=O)N4CCN(C)CC4)CC3)cs2)cc1
  -15	0	37	i	-8	-1	-6	-3
- C=Cc1ccc2c(c1)N(C)C(=C)S2
  -12	/	6	i	0	6	-4	21
- CCC(C)(C)C1CCC2(CC1)NC(CO)(CO)CO2 (stereo not given)
  -11	/	/	i	4	2	-10	-2
- CCc1ccc(C(=O)NNC(=O)c2n[nH]c(=O)c3ccccc23)cc1
  /	2	-16	/	0	/	-5	/
- COc1ccc(C)cc1NC(=O)C(c1ccccc1)N1CCNC(=O)C1 (stereo not given)
  -2	/	/	i	-3	9	-1	16
- C=CCOc1ccc(/C=C(\C#N)C(=O)Nc2ccccn2)cc1OC
  -1	-21	20	i	0	-5	-1	4
- CN1CCN(S(=O)(=O)c2ccc(NC(=O)c3ccc(Br)s3)cc2)CC1
  -14	-16	-14	i	0	0	1	-8
- COC(=O)C1=C(C)NC(=O)NC1c1cn(-c2ccccc2)nc1-c1cccs1 (stereo not given)
  -8	9	/	i	-2	0	-1	-9
- Cc1ccc2c(c1)NCC(C(=O)NC1CCC(C)CC1)O2 (stereo not given)
  -5	-16	-8	i	3	-4	-4	5
- CCCS(=O)(=O)c1c(S(=O)(=O)CCC)c2cnccn2c1C(=O)c1ccc(OC)cc1
  31	-21	12	i	2	11	2	-13
- Cc1[nH]c2ccccc2c1-c1nc2ccccc2[nH]c1=O
  2	-19	-3	i	2	-6	2	7
- Cc1ccccc1NC(=O)CSc1nnc(C2CC2)n1CC1CCCO1 (stereo not given)
  2	-3	14	i	2	-23	-2	1
- COc1ccc(/C=C/C(=O)Nn2cnnc2)cc1
  -10	/	/	i	3	0	4	11
- CCc1ccc(C(=O)/C=C/c2cnn(C)c2C)s1
  3	-42	-68	i	-1	0	5	-7
- COC(=O)CCN1CCN(S(=O)(=O)c2ccc3c(c2)OCCO3)CC1
  -12	-9	/	/	3	/	5	/
- COC(=O)c1ccccc1SCC(=O)Nc1ccc(N2CCOCC2)cc1
  -7	-14	-43	i	6	-10	1	-8
- COc1ccc(CC(=O)Nc2ccc(S(=O)(=O)Nc3ncccn3)cc2)cc1OC
  -1	-7	0	i	3	1	5	14
- COCCN1C(=O)c2ccccc2C(C(=O)Nc2ccc3c(c2)OCCO3)C1c1ccc(F)cc1 (stereo not given)
  -10	/	-142	i	3	-2	5	-1
- O=C(COC(=O)Cc1ccc(Cl)cc1Cl)NC1CC1
  -4	-13	-2	/	1	/	0	/
- CCOC(=O)Cn1ccc2cc(S(=O)(=O)N3CCCC3)ccc21
  /	14	-2	/	1	/	1	/
- Cc1ccc(-c2nc3ccsc3c(=O)[nH]2)cc1
  -1	-19	-28	i	-2	-1	-3	8
- CC(C)C(c1nnnn1C1CCCC1)N1CCN(C(=O)c2ccco2)CC1 (stereo not given)
  7	/	/	i	1	16	4	-4
- O=C(NCC1CCCC(CNC(=O)Nc2ccc(Cl)cn2)C1)Nc1ccc(Cl)cn1 (stereo not given)
  -5	/	-16	i	-10	-10	-3	-6
- CCOC(=O)C1CCN(C(=O)COC(=O)CNC(=O)c2ccc(OC)cc2)CC1
  -8	-7	3	i	1	-2	1	-14
- Cc1cccc(Nc2c([N+](=O)[O-])ccc3nonc23)c1
  -12	/	-6	i	2	-2	2	19
- CC(C)(C)C(=O)OCc1cn(-c2ccccc2)nn1
  -4	-21	-52	i	-4	4	0	3
- C/C(=N\NC(=O)c1ccco1)c1ccc(NC(=O)C(F)(F)F)cc1
  /	0	4	i	1	-2	-1	-2
- CCN(CC)S(=O)(=O)c1ccc(NC(=O)CCNC(=O)c2ccco2)cc1
  -11	-16	-2	/	6	-3	3	33
- CC1(c2cc(C(F)(F)F)n3nc(C(=O)O)cc3n2)CC1
  -4	-13	/	i	-2	-8	2	23
- COc1ccc(N2CC(O)=C(c3nc(-c4ccc(F)cc4)cs3)C2=N)cc1
  /	/	-14	i	6	1	3	-3
- Cc1cc(NC(=O)CCOc2ccccc2)no1
  /	-18	?	i	-2	7	-4	3
- O=C(CN1C(=O)NC2(CCCCCC2)C1=O)c1cccs1
  /	5	6	/	2	/	-4	/
- C=CCC[C@H](Cc1ccc(F)cc1)C(=O)OC[C@@H](C)NC(=O)[C@@H](CC=C)CC(=O)N[C@@H](CO)Cc1ccccc1
  0	-11	-83	/	-11	/	-10	/
- C/C(=N\O)C1(C)N(O)C(C)(C)C(c2ccc(Br)cc2)=[N+]1[O-] (stereo not given)
  -23	-11	-30	i	3	-10	4	-10
- COc1ccc(C(=O)NNC(=O)CCC(=O)Nc2ccc(C)cc2C)cc1
  -5	-5	2	i	2	-17	0	2
- CCCn1c2ccccc2c2nnc(SCC(=O)Nc3ncccn3)nc21
  1	-16	/	i	-3	-6	-5	0
